# HCMV NEC inh: cytomegalovirus nuclear egress complex inhibition; 190,000 compounds, 0.15% hits; AID 1918969; inhibition, % (test concentration not listed); HTRF UL50-UL53 interaction, normalized percent inhibition;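 active = both replicates at 50% or more, plus weaker picks with an unusually low signal ratio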;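 note: stock transfer was 100 nL into about 20 µL; 0% = negative control wells and 100% = wells with untagged competitor protein; inactives centre near -12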
# GIV Gai3 FP: inhibitors of GIV GBA-motif binding to rat Galpha-i3; P08753; Galpha-i3/FITC-GIV peptide fluorescence polarization, 90 min; active compounds read low; scaled: aluminum fluoride 0%, vehicle 100%; percent of control (FP), % (no concentration beside the values); 210,000 compounds, 0.42% hits;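 active = replicate mean at 85% of control or lower, very high polarization wells dropped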;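 note: wells of about 15 µL received 100 nL stock; the first replicate is given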
# Target sequence (P08753 whole entry, looked up): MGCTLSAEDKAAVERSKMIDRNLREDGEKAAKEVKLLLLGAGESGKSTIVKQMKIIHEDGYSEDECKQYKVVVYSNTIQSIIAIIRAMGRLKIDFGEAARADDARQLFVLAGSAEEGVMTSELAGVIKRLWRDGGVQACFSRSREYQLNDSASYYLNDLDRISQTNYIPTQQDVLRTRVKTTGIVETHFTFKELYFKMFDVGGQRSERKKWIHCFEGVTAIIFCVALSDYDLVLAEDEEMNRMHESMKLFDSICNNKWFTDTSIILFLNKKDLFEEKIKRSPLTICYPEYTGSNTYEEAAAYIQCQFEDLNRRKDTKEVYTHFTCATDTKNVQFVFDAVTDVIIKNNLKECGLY
# Sa growth 42C: S. aureus growth inhibition. S. aureus RN4220 growth, OD600, 20 h, 42 °C; active compounds read low. relative growth, % (no concentration beside the values). 170,000 compounds, 0.53% hits. AID 720641;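 active = growth at 42 °C up to 50% and 20 or more points under that at 30 °C, or under 10% at both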;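 note: 300 nL library stock went into each well; scaled to the means of positive and negative controls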
# Sa growth 42C second temp: further read-out of Sa growth 42C, marked with its call; relative growth, %; measured here: growth at 30 °C;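 optical density after 20 h as mean of two plates; 100% = untreated growth and lower means inhibition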
# The depositor's hits bear a star; nt = no result given; & = joins results of further samples.
SMILES,HCMV NEC inh,GIV Gai3 FP,Sa growth 42C,Sa growth 42C second temp
CCOC(=O)c1cc2c(C(F)(F)F)cc(=O)[nH]c2o1,-21,nt,98,62
COc1ccc(OCCNS(=O)(=O)c2ccc3c(c2)oc2ccccc23)cc1,-6,nt,120,100
O=C(Nc1sc2c(c1C(=O)Nc1ccc(Cl)cc1)CCCC2)c1cccs1,18,104,98,103
CC(=O)N1CCc2cc(S(=O)(=O)NC(C)C(=O)O)ccc21 (stereo not given),-9,103,104,90
O=C(NCCc1nc(-c2ccccc2)cs1)c1ccccc1,-1,nt,90,84
Cc1cc(C(=O)NCCCN2CCCCC2)c2c(=O)n(C)c(=O)n(C)c2n1,-22,102,nt,nt
CCN1CCCC1CNC(=O)c1cc2c(=O)[nH]c3ccc(C)cc3c2s1 (stereo not given),-4,111,124,96
Cc1ccc(/C(N)=N/O)cc1,-16,nt,102,90
Cc1nn(-c2ccccc2)c(-n2cccc2)c1C(=O)N1CCCC1,nt,109,119,99
CCN(C(=O)CN1C(=O)C(C)CSc2ccc(S(=O)(=O)N3CCCC3)cc21)c1ccccc1 (stereo not given),-14,102,nt,nt
O=C(OCC(=O)N1CCCCC1)c1ccc(Oc2ccccc2)cc1,4,nt,103,100
O=C(Cn1c(=O)n(-c2ccc(F)cc2)c(=O)c2oc3ccccc3c21)NCc1ccc2c(c1)OCO2,-33,101,93,74
O=C(CC1NCCN(Cc2ccccc2)C1=O)N/N=C/c1cc(Cl)cc(Cl)c1O (stereo not given),-29,105,96,94
CCCC1Nc2ccccc2S(=O)(=O)N1 (stereo not given),nt,101,93,88
COc1ccc(NC(=O)CCc2nc3cccnc3n2-c2ccccc2)c(OC)c1,-36,106,103,87
O=C(Nc1ccccc1)c1nnc(COCC(=O)N2CCN(c3cccc(Cl)c3)CC2)s1,-25,105,nt,nt
CCC(Sc1nc2ccccc2s1)C(=O)Nc1ccc(S(N)(=O)=O)cc1 (stereo not given),1,104,nt,nt
Cc1ccc(C2=CC(c3cccs3)n3c(nc4ccccc43)N2)cc1C (stereo not given),-26,104,91,59
CS(=O)(=O)N(Cc1ccccc1)c1ccccc1,-2,108,105,100
Cc1ccc(N(Cc2nc3nc(C)cc(=O)n3[nH]2)C(=O)Cc2ccccc2)cc1,-36,102,nt,nt
CCN(C(=O)CSc1nc2ncccc2o1)c1ccccc1,-21,101,nt,nt
COc1ccccc1N1CCN(C(=O)c2ccc3c(c2)N(Cc2ccccc2)C(=O)c2ccccc2S3(=O)=O)CC1,-14,105,119,106
Cc1nn(CC(=O)N2CCN(c3ccccc3F)CC2)c(=O)c2cccn12,2&-19,109&100,84,81
O=C(CC1NC2CCCCC2NC1=O)Nc1ccc2c(c1)OCCO2 (stereo not given),-38,105,95,87
CC1=CS(=O)(=O)CC1SC(=S)N(C)C1CCS(=O)(=O)C1 (stereo not given),nt,105,110,92
COc1cc(Cl)c(NC(=O)c2cc(CN3CCCC3)on2)c(OC)c1,-28,103,94,87
CCOC(=O)CSc1nnc(Cc2ccc(OC)c(OC)c2)o1,nt,104,108,82
COc1cc2nc(Nc3cccc(F)c3)nc(N)c2cc1OC,2,105,71,38
Cc1cc(-n2nnc(C(=O)OCc3ccc(F)cc3)c2C)ccc1Br,-8,101,nt,nt
CC(C)Oc1ccc(C(=O)Oc2cccc(-n3cnnn3)c2)cc1,10,106,nt,nt
CC1CCN(C(=O)CSc2c3c(nc4cc(Cl)ccc24)CCCC3)CC1,-33,104,101,92
Cc1ccccc1CSCc1ccc(C(=O)NCc2cccs2)o1,nt,114,98,61
N#Cc1cccnc1NNC(=O)CC1(CC(=O)O)CCCC1,10,103,105,99
Cc1noc(C)c1S(=O)(=O)N(C)CC(=O)N1CCc2ccccc21,nt,111,84,94
CC1(C)CC2CC(C)(CN2C(=O)COC(=O)Cn2[nH]c(=O)c3ccccc3c2=O)C1 (stereo not given),11,nt,103,96
COc1cccc(-n2cc(C(=O)Nc3cc(C)c(Cl)cc3OC)c3ccccc3c2=O)c1,nt,100,118,110
CCC(Cc1ccccc1)NC(=O)c1ccc2nc(-c3ccccc3NC(C)=O)c(=O)[nH]c2c1 (stereo not given),nt,103,99,85
CN1CCN(C(CNC(=O)c2ccc(Br)cc2)c2ccc(N(C)C)cc2)CC1 (stereo not given),-32,103,nt,nt
Cc1ccc(-c2nc(C(N)=O)c3c(n2)n(-c2ccc(C)c(C)c2)c(=O)n3C)cc1,-8,114,nt,nt
Cc1ccc(C)c(NC(=O)CSc2nc(-c3ccccc3)cc(=O)[nH]2)c1,nt,96,103,89
CN(C)CCNC(=O)c1ccccc1,-10,nt,88,93
CNC(=O)c1ccc(N2CCCS2(=O)=O)cc1,-33,103,103,80
O=C(CSc1nc2cc(Cl)ccc2c(=O)n1Cc1ccccc1)N1CCOCC1,-8,nt,97,98
Nc1ncc(Br)cc1S(=O)(=O)NCCC(=O)Nc1nccs1,-14,103,91,85
CCOc1ccccc1N1CC(c2nc3ccccc3n2CCCOc2ccccc2OC)CC1=O (stereo not given),-22,106,101,70
COc1ccc2nc(NC(=O)CSc3nc4ccc([N+](=O)[O-])cc4[nH]3)sc2c1,-23,102,nt,nt
Cc1ccc(S(=O)(=O)c2nc(NCCN3CCOCC3)sc2Cl)cc1,-18,103,105,81
CCOC(=O)c1c(C)[nH]c(C)c1S(=O)(=O)Nc1cc(C)cc(C)c1,-30,100,100,94
CCCc1ccc(C(=O)N2c3ccccc3C(N(C(=O)c3ccc([N+](=O)[O-])cc3)c3ccccc3)CC2C)cc1 (stereo not given),-10,99,nt,nt
C=C1C(C(=O)Nc2nccs2)C1C(=O)Nc1nccs1 (stereo not given),-36,nt,92,66
Cc1c(C(=O)Nc2ccc(S(=O)(=O)N3CCCCC3C)cc2)oc2ccccc12 (stereo not given),nt,105,98,65
CN(C)c1nc(N2CCCCC2)nc(N2CCCCC2)n1,3,99,99,90
N#CCCN(Cc1ccccc1)C(=O)c1ccccc1,-3,105,116,101
O=C(NCCc1ccccn1)c1ccc2nccnc2c1,-101,99,103,90
Cc1cc(N2CCN(C)CC2)nc2ccc(NC(=O)NC3CCCC3)cc12,-2,100,106,97
COc1ccc(-c2cc(C(=O)Nc3cccc4nsnc34)c3ccccc3n2)cc1,1,103,nt,nt
O=C1CCCC(O)=C1C=NCc1ccccc1,-17,nt,89,90
COc1ccccc1CNC(=O)C1c2c(C)nn(-c3ccccc3)c2SCC(=O)N1c1ccc2c(c1)OCO2 (stereo not given),-30,106,nt,nt
COc1ccc(-c2nn3c(N4CCCCC4)cc(C)nc3c2C)cc1OC,-17,111,nt,nt
CC(C)CCn1c(=O)c2ccccc2n2c(=O)n(CC(=O)N3CCN(c4ccccc4F)CC3)nc12,-8,98,nt,nt

# Additional structures follow.
SMILES,HCMV NEC inh,GIV Gai3 FP,Sa growth 42C,Sa growth 42C second temp
Cc1cccc(C(=O)N/C(=C/c2ccco2)C(N)=O)c1,-24,117,87,76
Cc1ccc2c(c1)-c1c(c(C(=O)N3CCN(c4cc(Cl)ccc4C)CC3)nn1C)CS2,nt,99,90,87
COC(=O)c1cc(S(=O)(=O)N2CC=C(c3ccccc3)CC2)cn1C,7,100,nt,nt
C/C(=N\NC(=O)Cn1nnc(-c2cccc(C(F)(F)F)c2)n1)c1ccncc1,-3,nt,113,94
O=C1C2CC=C(Cl)CC2C(=O)N1CCCCCCN1C(=O)C2CC=C(Cl)CC2C1=O (stereo not given),-20,104,nt,nt
CCOc1cc(-c2cccc(OC)c2)nc2ccc(C(=O)NCc3ccc(Cl)cc3)cc12,-7,105,nt,nt
CC(C)Oc1ccc(CNC(=O)Cn2c(-c3cccs3)cc3ccccc32)cc1,nt,106,132,108
CCc1ccc(-n2c(=O)c3cccnc3n2CC(=O)NC(C)CCc2ccccc2)cc1 (stereo not given),-26,108,nt,nt
CCOC(=O)c1cnc2c(C(=O)OC)c[nH]n2c1=O,9,107,86,95
COc1ccc2cc3cc(C(=O)N4CCC5(CC4)OCCO5)oc3nc2c1,nt,109,121,86
COc1ccc(N2C(=O)/C(=C/c3ccc(OCc4ccccc4C#N)c(OC)c3)C(=O)NC2=S)cc1,-7,110,nt,nt
CN(C)c1ccc(CNC(=O)c2ccc(CN(Cc3ccccc3)C(=O)Nc3ccccc3)o2)cc1,-27,106,114,90
COc1ccc(CN(C(=O)c2cccc(Cl)c2)C2CCS(=O)(=O)C2)cc1OC (stereo not given),nt,95,117,81
CCc1ccc(-c2cn3nc(N4CCC(C(=O)NC5CCCC5)CC4)sc3n2)cc1,4,102,nt,nt
O=C1C(=O)N(C2CCN(S(=O)(=O)c3ccc(Cl)cc3)CC2)CCN1Cc1ccccc1,-13,96,nt,nt
O=C(Nc1ccc(-c2cn3ccsc3n2)cc1)c1ccccc1,1,nt,79,93
CC1(C)SCNC1C(=O)O (stereo not given),-10,96,109,86
CCc1cc(C(=O)Nc2sccc2C(N)=O)cs1,-11,129,123,79
COC(=O)c1ccc(OCC#N)cc1,-2,nt,67,86
COCCCNC(=O)c1ccc(-n2c(-c3ccccc3)cc3c2CCCC3)cc1,1,102,93,94
COc1ccccc1N1CCN(C(=O)c2ccc(/C=C3\Oc4ccccc4NC3=O)cc2)CC1,nt,109,83,88
O=C(NC1CCCCC1)N1CCc2cc(S(=O)(=O)Nc3ccc(F)cc3F)ccc21,-8,97,nt,nt
O=C1COc2ccc(S(=O)(=O)N3CCN(C(=O)c4ccc(F)cc4)CC3)cc2N1,-28,108,nt,nt
